Cruzain Triton: inhibitors of Trypanosoma cruzi cruzain with detergent; Potency, µM, for inactives: max response, negative = inhibition, hits mostly inhibitors; hit rate 0.43% among 200,000; P25779; purified cruzain, Z-FR-AMC fluorescence, 0.01% Triton; AID 1478; active = well fitted curve in the direction sought with a large enough effect; inconclusive = small, poorly fitted or top-dose-only effect, or another doubt; inactive = no such curve, though single readings can be large; an effect the other way counts as inactive or inconclusive;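 note: plate controls were neutral wells for no effect and buffer without enzyme for full effect; nearly all actives have a fitted effect of over 40% in size; top concentration of the series not given in the record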
Target sequence (P25779 123-467 limits assumed): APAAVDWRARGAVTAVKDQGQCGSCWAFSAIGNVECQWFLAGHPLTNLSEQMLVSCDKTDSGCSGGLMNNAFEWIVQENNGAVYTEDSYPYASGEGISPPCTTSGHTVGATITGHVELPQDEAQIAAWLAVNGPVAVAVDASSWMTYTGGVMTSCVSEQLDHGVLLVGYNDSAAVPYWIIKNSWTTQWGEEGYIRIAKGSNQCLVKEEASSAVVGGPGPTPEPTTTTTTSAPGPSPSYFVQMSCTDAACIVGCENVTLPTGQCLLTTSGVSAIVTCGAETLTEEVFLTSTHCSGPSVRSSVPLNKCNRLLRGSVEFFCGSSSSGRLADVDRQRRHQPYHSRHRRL
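Sodium acetate buffer (100 mM, pH 5.5) containing 5 mM DTT and 0.01% Triton X-100 hosted 1.5 nM cruzain and test compound for 15 min at room temperature. Cleavage of 2 uM Z-FR-AMC was then tracked by fluorescence.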
RE007 growth inh: less growth of the S. pombe RE007 Vpr strain; Potency, µM (titrated, usually from 92.2 µM), without a hit: top-dose activity change, negative = less growth; hit rate 0.21% among 360,000; AID 651644; S. pombe RE007 Vpr strain, BacTiter-Glo ATP luminescence, 24 h; control for the full effect not named in the record; active = well fitted falling curve with a large enough effect; inconclusive = small, poorly fitted or top-dose-only effect; inactive = no such curve, though single readings can be large or run the other way;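 note: % is set by controls: 0 for no effect and ±100 for the full control effect; nearly all actives have a fitted effect of over 50% in size; the assay follows cell death caused by Vpr and the record does not say whether a fall means rescue or toxicity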
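Fission yeast strain RE007, carrying one chromosomally integrated HIV-1 vpr copy, was seeded at OD 0.01 in PMG+AL medium with 23 nL pinned compound. After 24 h at 30 °C and 99% humidity, viability was read by BacTiter-Glo luminescence.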
NS1 inh: influenza NS1 inhibition; S. cerevisiae slowed by influenza A NS1, growth recovery by OD600; Potency, µM (top dose mostly 46.1 µM), without a hit: top-dose activity, positive = more growth; hit rate 0.4% among 270,000; AID 2326; note: actives are rising curves; nearly all actives have a fitted effect of over 50% in size
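A cell-based growth assay was used: compounds that relieve NS1-induced slow growth of budding yeast raise OD600. Assay medium was yeast nitrogen base with ammonium sulphate and -URA supplement, pH 6.0, with 2% galactose.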
LASV entry inh: Lassa virus entry inhibition | hit rate 1.2% among 300,000 | AID 540256 | Potency, µM (top dose mostly 37.9 µM), without a hit: at the top dose activity change, negative = inhibition, hits mostly inhibitors | Lassa virus pseudotype entry inhibition, cell reporter; control for the full effect not named in the record; active means well fitted inhibition curve with a large enough effect; inconclusive means small, poorly fitted or top-dose-only effect, or effect the other way; inactive means flat fitted curve, though single readings scatter; tested in HEK293 cells; note: % is set by controls: 0 for no effect and ±100 for the full control effect; nearly all actives have a fitted effect of over 50% in size; luciferase read-out
SARS PLpro yeast: SARS-CoV PLP inhibition in yeast. S. cerevisiae expressing SARS-CoV PLpro, growth rescue; control for the full effect not named in the record. Potency, µM (highest dose often 32.9 µM), inactives show at the top dose activity, positive = growth rescue. hit rate 0.19% among 330,000; note: 0% is about no effect; nearly all actives have a fitted effect of over 55% in size; growth read by luminescence after 48 h
StopGo reporter: lowers the luciferase signal of an FMDV 2A StopGo reporter. Potency, µM (highest dose often 57.9 µM), inactives show at the highest dose signal change, negative = less light. human cells with a luciferase reporter of 2A StopGo recoding; control for the full effect not named in the record. AID 1159524. hit rate 1.2% among 410,000; active = well fitted falling curve with a large enough effect; inconclusive = small, poorly fitted or top-dose-only effect; inactive = no such curve, though single readings can be large or run the other way; tested in HEK293T cells; note: % is set by controls: 0 for no effect and ±100 for the full control effect; nearly all actives have a fitted effect of over 45% in size; luciferase light after 4 h
Cruzain noTriton: cruzain (T. cruzi) inhibition without detergent; purified cruzain, Z-FR-AMC fluorescence, no detergent; Potency, µM, inactives show max response, negative = inhibition, hits mostly inhibitors; hit rate 2.3% among 200,000; AID 1476; active = well fitted curve in the direction sought with a large enough effect; inconclusive = small, poorly fitted or top-dose-only effect, or another doubt; inactive = no such curve, though single readings can be large; an effect the other way counts as inactive or inconclusive;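 note: plate controls were enzyme without inhibitor for no effect and buffer without enzyme for full effect; nearly all actives have a fitted effect of over 40% in size; top concentration of the series not given in the record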
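Detergent-free condition (0.00005% Triton X-100) in acetate buffer pH 5.5 with DTT. 1.5 nM enzyme and compound were pre-mixed 15 min, then 2 uM Z-FR-AMC substrate added; reaction progress from fluorescence change between first and third reads (60 s).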
Marburg entry inh: Marburg virus entry inhibition | Marburg virus pseudotyped entry inhibition, cell reporter; control for the full effect not named in the record; about a third of the inactives were read at about 46 µM | Potency, µM (doses to about 37.8 µM), for inactives: top-dose activity change, negative = inhibition, hits mostly inhibitors | hit rate 1.8% among 300,000 | AID 540276; active = well fitted inhibition curve with a large enough effect; inconclusive = small, poorly fitted or top-dose-only effect, or effect the other way; inactive = flat fitted curve, though single readings scatter; tested in HEK293 cells; about a fifth of its hits are not listed in these tables; note: % is set by controls: 0 for no effect and ±100 for the full control effect; luciferase read-out
* = called active by the depositor; ? = inconclusive; · = not tested or not shown; & = joins results of further samples; [ ] = dose if it differs, or a comment. Unless noted, calls come from the whole dose curve; as a rule, active means well fitted rising curve with a large enough effect; inconclusive means small, poorly fitted or top-dose-only effect; inactive means no such curve, though single readings can be large or run the other way. Potency is the fitted concentration of half-maximal effect. Random draw from the library (roughly 4.5% active in at least one column).

SMILES | Cruzain Triton | RE007 growth inh | NS1 inh | LASV entry inh | SARS PLpro yeast | StopGo reporter | Cruzain noTriton | Marburg entry inh
Cc1cc(C)cc(NC(=O)c2cc(C)nc3ccccc23)c1 | · | -1% | 24% | 0% | 5% | 0% | · | -6%
COc1ccc(C(=O)N/C(=C\c2cn(C)c3ccccc23)C(=O)OCCN(C)C)cc1 | · | -8% | -1% | -3% | 0% | -6% | · | ?
O=C(Nc1ccccc1)C(=O)c1c[nH]c2ccccc12 | · | -11% | -16% | ? | -3% | 12% | · | ?
Cc1cccc(OCC(=O)NC2CCCC2)c1 | · | -4% | 7% | ? | -2% | 33%[activator] | · | 13%[46.1 µM]
Cc1cc(O)c(C(C)C)cc1N=Cc1ccccc1O | -0.3% | 11% | -3%&7% | · | -1% | -13% | 0% | ·
O=C(NC1=NCCS1)c1ccc2c(c1)C(=O)N(Cc1ccco1)C2=O | -4.8% | 0% | 13% | 3% | -1% | 4% | -17% | 0%
COCc1cc(C)nc(SCc2nc3ccccc3c(=O)[nH]2)c1C#N | · | -5% | · | -1%[46.1 µM] | 3% | 0% | · | ?
COc1ccc(S(=O)(=O)N2CCOCC2)cc1NC(=O)CSc1nc(C)c(C)c(C)n1 | · | 5% | · | -4%[46.1 µM] | 4% | 13% | · | 0%[46.1 µM]
CCOC(=O)c1c(C)n(C)c2ccc(OCC(O)CN(CC)CC)cc12 (configuration not stated) | -0.7% | -9% | -3% | · | 1% | -18% | 1% | ·
CCOc1ccc(C2/C(=C(\O)c3c(C)[nH]c(C(=O)OC)c3C)C(=O)C(=O)N2CCN(C)C)cc1 (configuration not stated) | -2.9% | -8% | 5% | -2% | -1% | -4% | -5% | 2%
COc1ccc(OC)c(NC(=O)CC(Cc2ccccc2OC)C(=O)O)c1 (configuration not stated) | 4.3% | 18% | 6% | 3% | ? | 22% | 6% | 0%
COc1ccc(NC(=O)c2sc3cc(C(F)(F)F)cnc3c2-c2cccs2)cc1 | 3.3% | 31% | 1% | -19% | 2% | -23% | -4% | ?
Cc1c(CN2CCC(C(=O)Nc3cccc(-c4cccc(Cl)c4)c3)CC2)cnn1C | · | 1% | 8% | · | 25% | -25% | · | ·
CCOC(=O)c1cc(-c2ccccc2)nc2c1c(C)nn2-c1ccccn1 | -13% | 20% | 12% | -22% | -12% | 0% | ? | ?
COc1cc(/C=N/Nc2nc(Nc3ccc(C)cc3)nc(-n3nc(C)cc3C)n2)cc(OC)c1OC | 5.0% | 7% | 16% | ? | -4% | -7% | -13% | ?
CCOc1ccc(-c2csc3nc[nH]c(=O)c23)cc1 | · | 9% | -19% | 12%[46.1 µM] | -1% | 0% | · | 18%[46.1 µM]
Clc1nc(NCc2cccnc2)nc(N2CCOCC2)n1 | 2.0% | 2% | 5% | 15% | 16% | -2% | -5% | -6%
OC(COc1ccc(Cl)cc1Cl)Cn1ccnc1 (configuration not stated) | · | -8% | 3% | 9% | -2% | -14% | · | ?
Cc1cc(C)n(/N=C/c2ccccc2O)c(=O)c1 | · | 1% | 6% | 16%[46.1 µM] | 1% | 37%[activator] | · | ?
COc1ccc(-c2nnn(CC(=O)N(Cc3cccs3)C(C)C(=O)NCCC(C)C)n2)cc1OC (configuration not stated) | 1.1% | -10% | -2% | -12% | 2% | -9% | ? | ?
Cc1cccc2cc(COC(=O)C(C)C)c(=O)[nH]c12 | -6.9% | 6% | -4% | 14% | 1% | 13% | -8% | 0%
Cc1ccnc(NC(=O)CNC(=O)c2ccccc2)c1 | · | 2% | · | 17% | -2% | 33%[activator] | · | 10%[46.1 µM]
COC(=O)c1c(C)n(-c2ccc(OC)cc2)c2ccc(O)cc12 | -12% | 10% | -2% | ? | 4% | -10% | -16% | ?
COc1cc(NC(=O)Cn2c(C)cc(C)c(C#N)c2=O)cc(OC)c1 | -2.9% | · | · | 19%[46.1 µM] | · | -10% | -1% | ·
Cc1cnc(C(=O)OCC(=O)NC(C)C)cn1 | 11% | 11% | 0% | -1% | 1% | -18% | -6% | -3%
Cc1ccc(-n2c(C)cc(/C=N/NC(=O)c3ccncc3)c2C)cc1 | -6.6% | 3% | 10% | 4% | 2% | 8% | -5% | -2%
O=S(=O)(N1CCCCCC1)N1CCNCC1 | · | 1% | -6% | 1% | -3% | -16% | · | 18%
Cc1ccc2nsnc2c1S(=O)(=O)N1CCN(CCc2ccccc2)CC1 | -3.0% | 7% | -1% | -3% | 8% | ? | -10% | -16%
CN1CCC(NC(=O)CCc2ccccc2)CC1 | · | 5% | 8% | 21% | 0% | 10% | · | ?
Cc1nnc(NC(=O)c2ccc(-c3cccc(C(F)(F)F)c3)o2)s1 | 1.6% | 3% | -2% | 1% | -1% | 20% | 13µM* | -23%
Cc1cc(N2C(=O)C(=O)/C(=C(/O)c3ccc(F)cc3)C2c2ccc(Cl)cc2)no1 (configuration not stated) | -5.6% | 7% | -20% | 29% | 5% | -21% | 9% | 7%
Cn1cccc1C(=O)NC(=O)COC(=O)c1ccccc1O | -1.5% | 5% | -7% | -13% | 0% | 31%[activator] | 9% | -4%
O=[N+]([O-])c1cc(-c2nc(-c3ccccc3)no2)ccc1N1CCCCC1 | -3.0% | · | · | 3%[46.1 µM] | · | -15% | -1% | 4%[46.1 µM]
O=C(Nc1ccccc1)N1CCC(C(=O)N(Cc2ccco2)Cc2cccs2)CC1 | -1.8% | -11% | -8% | ? | 2% | -24% | -3% | -4%
Cc1nc(SCC(=O)N2CC(C)OC(C)C2)nc(C)c1C (configuration not stated) | 0.4% | 5% | 1% | 2% | 2% | 9% | 3% | 14%
CC1Sc2ccc(S(=O)(=O)CCC(=O)NC3CCCCC3C)cc2NC1=O (configuration not stated) | · | -3% | 8% | · | 0% | -22% | · | ·
COc1cccc(N2C(=O)CC(NNC(=O)c3cccs3)C2=O)c1 (configuration not stated) | 0.2% | -15% | 17% | 12% | ? | 9% | -5% | 8%
COc1ccc(Cl)cc1-c1nc(SCC(=O)NC2CC2)n[nH]1 | · | 2% | ? | -3% | 0% | -9% | · | 0%[46.1 µM]
CCC/C=C(\CCC)C(NC(=O)OCC(C)C)c1ccc(C(=O)OC)cc1 (configuration not stated) | -7.0%&-2.5% | 17% | 0% | -24% | -9% | ? | -11%&1% | -28%&-28%
CC(=O)N1N=C(c2ccc(C)cc2)CC1c1ccc2c(c1)OCO2 (configuration not stated) | · | 1% | -6% | -26% | -2% | 39%[activator] | · | ?
O=C(NCc1ccccc1)c1ccc(C2SCC(=O)N2Cc2ccccc2)cc1 (configuration not stated) | -0.4% | -2% | -6% | ? | 3% | ? | -23% | 10%
C[C@@H]1C=C(C(=O)N2CCN(Cc3ccc4c(c3)OCO4)CC2)O[C@H](OCCCCO)C1 | · | -9% | 2% | · | 0% | -12% | · | ·
Cc1ccc(/C=C/C(=O)Nc2nccs2)o1 | -8.1% | 5% | 1% | ? | 3% | -15% | -10% | ?
O=C(NCCCCc1ccccc1)c1ccccc1 | · | 20% | · | 17% | 2% | 24% | · | -11%
Cc1ccccc1C(=O)Nc1ccccc1 | 0.4% | -11% | 4% | 14% | 0% | 47%[activator] | -12% | ?
CC1CCC(C(C)C)C(OC(=O)C[n+]2cc(-c3ccc(Cl)cc3)n3c2CCCCC3)C1 (configuration not stated) | · | 19% | · | ? | 2% | ? | · | ?
COc1cc(OC)c(NC(=O)CCc2c(C)nc3ncnn3c2C)cc1Cl | -0.3% | · | · | 16%[46.1 µM] | · | -16% | -2% | -7%[46.1 µM]
O=C(COC(=O)c1ccccc1O)NC12CC3CC(CC(C3)C1)C2 | · | 0% | · | -9% | -14% | -21% | · | ?
CCOc1ccccc1C(=O)Nn1c(C2CCC2)nc2ccccc2c1=O | 5.5% | -10% | -35% | 8% | 1% | 0% | 5% | -19%
FC(F)(F)c1cnc(N2CCC(=NOCc3ccc(Cl)cc3)CC2)c(Cl)c1 | 1.1% | -8% | -1% | 7% | -10% | 11% | 5% | ?
COC(=O)c1cc(NC(=O)c2cc(C(C)(C)C)nn2Cc2cccc(C)c2)ccc1N1CCOCC1 | · | 6% | 15% | · | -4% | ? | · | ·
COCCNC(=O)c1onc(CCl)c1C(=O)OC | 2.5% | 5% | 3% | · | -8% | 5% | 2% | ·
Cc1ccc(S(=O)(=O)N2CCCCC2)cc1C(=O)OC(C)C(=O)NCC1CCCCC1 (configuration not stated) | · | 2% | · | -12% | 1% | -29% | · | ?
COc1ccc(N2C(=O)C(Cl)=C(Nc3ccc(OC)cc3OC)C2=O)cc1 | · | 12% | · | 23% | -1% | 30%[activator] | · | ?
Cc1cccc(NC(=O)COc2ccc(Br)cc2)n1 | -4.1% | ? | -19% | ? | -18% | 0% | -16% | 10%
CCCn1c(C2CCCN2c2nc(-c3ccc(OC)cc3)cs2)nc2ccccc21 (configuration not stated) | · | -7% | ? | · | 10% | 2% | · | ·
COc1cccc(NC(=O)N2CCCC2C(=O)NCc2ccccc2F)c1 (configuration not stated) | · | 0% | -2% | · | 1% | -2% | · | ·
O=C(N[C@@H](c1ccccc1)[C@@H]1C[C@H]1C(=O)NCc1ccccn1)OCc1ccccc1 | -2.1%&-0.1% | -10% | -4% | -12% | -6% | -12% | 7%&-1% | 16%
CNCCC(Oc1ccccc1C)c1ccccc1 (configuration not stated) | 3.0% | · | -3% | ? | · | · | 1% | 14µM*
CCc1nn(CC(=O)NC(C)CCc2ccccc2)c(=O)c2cc3c(OC)cccc3n12 (configuration not stated) | 0.7% | · | · | · | · | -23% | -1% | -2%[46.1 µM]

Screens: PubChem BioAssay, National Center for Advancing Translational Sciences (NCATS)
